Assay outcomes deposited in PubChem by National Center for Advancing Translational Sciences (NCATS).
Vaccinia Venus = vaccinia inhibition (Venus reporter) | Potency, µM (doses to about 36.5 µM), for the others: at the highest dose activity change, negative = inhibition, most hits filed as inhibitors | Vaccinia virus Venus reporter expression, fluorescence | actives 0.46% (n = 330,000); active means well fitted inhibition curve with a large enough effect; inconclusive means small, poorly fitted or top-dose-only effect; inactive means no such curve, though single readings can be large or run the other way; tested in A549 cells; also: nearly all actives have a fitted effect of over 30% in size; inactives centre near -10
Vaccinia mCherry = vaccinia inhibition (mCherry reporter). AID 720579. actives 0.63% (n = 310,000). Potency, µM (doses to about 36.5 µM), without a hit: top-dose activity change, negative = inhibition, hits mostly inhibitors. Vaccinia virus mCherry reporter infection, fluorescence; about a quarter of the inactives have no number; active = well fitted inhibition curve with a large enough effect; inconclusive = small, poorly fitted or top-dose-only effect; inactive = no such curve, though single readings can be large or run the other way; tested in A549 cells; also: nearly all actives have a fitted effect of over 35% in size; inactives centre near -10
Active calls of the source: *; i = inactive; ? = inconclusive; nt = not tested or not shown; [ ] = remark or other dose. % is scaled to controls: 0 for no effect and ±100 for the full control effect; potency is read from the fitted curve at half-maximal effect.

Screens in order – Vaccinia mCherry | Vaccinia Venus
COc1ccc(C(CC(=O)Nc2ccc(F)c(Cl)c2)N2Cc3ccccc3C2=O)cc1OC (stereo not drawn)
→ 4.6% | -6.6%
O=C(Nc1ccc2c(c1)CCC2)c1c(F)cccc1Cl
→ i | -1.6%
COc1ccc(-n2nc3c(c2NC(=O)c2ccc(S(=O)(=O)N4CCOCC4)cc2)CS(=O)(=O)C3)cc1
→ -7.3% | -8.1%
COc1cc(Cl)c(NC(=O)C(NS(=O)(=O)c2cccs2)C(C)C)c(OC)c1 (stereo not drawn)
→ -7.5% | -8.2%
N#Cc1nc(-c2ccccc2Cl)oc1NCc1ccco1
→ -17.2% | -3.3%
Cc1cc(N2CCN(C)CC2)nc(N2CCOCC2)n1
→ nt | -15.9%
CCN1C(=O)c2ccccc2S(=O)c2ccc(C(=O)NCc3ccc(F)cc3)cc21 (stereo not drawn)
→ -17.8% | -28.0%
Cc1nn(-c2ccc(F)cc2)c(Cl)c1/C=C(/CC(=O)O)c1nc2ccccc2s1
→ -12.6% | -7.9%
CCOc1ccc(N2C(=O)C(Cl)=C(N3CCOCC3)C2=O)cc1
→ -18.3% | -8.0%
COc1ccc2cc(CNCc3ccccc3C(F)(F)F)c(N3CCCC(CO)C3)nc2c1 (stereo not drawn)
→ -5.1% | 10.3%
COC(=O)c1cc2c(cc1N)OCCO2
→ -11.3% | -2.7%
O=C(O)CC(C(=O)OC1CCCCC1)N1CCOCC1 (stereo not drawn)
→ i | -0.2%
CCOC(=O)C(NC(=O)c1ccccc1)(N1CCOCC1)C(F)(F)F (stereo not drawn)
→ nt | -19.6%
O=C(NC(=S)Nc1nc(-c2cccc([N+](=O)[O-])c2)cs1)c1cc(Cl)ccc1Cl
→ -17.3% | -12.8%
CN1C(=O)C(CC(=O)Nc2ccc(F)cc2)N(Cc2ccco2)C1=S (stereo not drawn)
→ -4.4% | 3.4%
CC(C)(C)n1nnnc1C(c1ccc(C(F)(F)F)cc1)N(Cc1ccccc1)Cc1ccco1 (stereo not drawn)
→ nt | -2.5%
CC1(C(=O)Nc2cccc(Oc3ccccc3)c2)CCN1Cc1cc2ccccc2o1 (stereo not drawn)
→ 10.8% | -8.6%
COc1ccc(CCNC(=O)CCCn2c(=O)c3ccccc3n(CC(=O)Nc3ccccc3C)c2=O)cc1OC
→ 0.6% | -3.5%
C=CCc1cc(/C=C2/NC(=O)N(CC(=O)OC)C2=O)cc(OC)c1O
→ ? | -19.4%
CC1=C(C(=O)Nc2ccccc2C)C(c2cccnc2)n2nc(SCc3ccccc3)nc2N1 (stereo not drawn)
→ -4.9% | -8.7%
C=CCn1c(O)c(C(C)=NCCCO)c(=O)[nH]c1=O
→ -11.9% | 6.4%
COCOc1cccc(CN2CCC2(C)C(=O)Nc2ccc(C)c(O)c2)c1 (stereo not drawn)
→ 21.3% | -1.8%
N/C(=N\OC(=O)c1ccccc1Cl)c1ccc(Cl)cc1
→ -8.4% | -7.1%
Nc1ccccc1-c1nc2ccccc2s1
→ ? | -2.9%
Cc1ccc(C(c2nnnn2Cc2ccccc2)N2CC=C(c3ccc(F)cc3)CC2)cc1 (stereo not drawn)
→ -12.4% | -7.3%
CSc1cccc(CNC(=O)CC2C(=O)NCCN2CC(C)(C)C)c1 (stereo not drawn)
→ i | 6.7%
CCOc1ccc(N(CC(=O)Nc2ccccc2C)S(=O)(=O)c2c(C)[nH]c(=O)[nH]c2=O)cc1
→ i[7.34 µM] | 0.0%[7.34 µM]
CCOC(=O)Cn1cnc2onc(-c3ccc(F)cc3)c2c1=O
→ -7.8% | 1.5%
Cn1c(N)c(C(=O)COC(=O)c2ccccc2C(=O)c2ccc(Cl)c([N+](=O)[O-])c2)c(=O)n(C)c1=O
→ ? | ?
COC(=O)C(CSCc1ccccc1)NC(=O)CSc1nc(C)cc(=O)[nH]1 (stereo not drawn)
→ -13.9% | 2.2%

Ordered by length of the SMILES (smallest number first): part of the list above
Screens in order – Vaccinia mCherry | Vaccinia Venus
COC(=O)c1cc2c(cc1N)OCCO2
→ -11.3% | -2.7%
CCOC(=O)Cn1cnc2onc(-c3ccc(F)cc3)c2c1=O
→ -7.8% | 1.5%
CCN1C(=O)c2ccccc2S(=O)c2ccc(C(=O)NCc3ccc(F)cc3)cc21 (stereo not drawn)
→ -17.8% | -28.0%

The main list resumes, starting 2 compounds before the break.
Screens in order – Vaccinia mCherry | Vaccinia Venus
Cn1c(N)c(C(=O)COC(=O)c2ccccc2C(=O)c2ccc(Cl)c([N+](=O)[O-])c2)c(=O)n(C)c1=O
→ ? | ?
COC(=O)C(CSCc1ccccc1)NC(=O)CSc1nc(C)cc(=O)[nH]1 (stereo not drawn)
→ -13.9% | 2.2%
Cc1ccc(S(=O)(=O)N(C)C)cc1NC(=S)N1CCc2ccccc21
→ ? | -13.3%
Nc1cc([N+](=O)[O-])ccc1Nc1ccc(O)cc1
→ i | -13.0%
COC(=O)[C@H]1C[C@@H]1[C@H](NS(=O)(=O)c1ccc2ccccc2c1)c1ccccc1
→ -9.6% | -12.4%
CCN(CC)CCNC(=O)c1ccc(NC(=O)c2cccc(S(=O)(=O)N3CCc4ccccc43)c2)cc1
→ ? | -26.3%
CC(=O)c1ccc(N2CCN(S(=O)(=O)c3cccc(S(=O)(=O)N4CCOCC4)c3)CC2)cc1
→ -21.5% | -10.2%
CCOC(=O)c1c(NC(=O)/C=C/c2ccc(OCC)cc2)sc2c1CCCC2
→ 5.7% | 11.7%
Nc1ncnc(N2CCc3ccccc32)c1[N+](=O)[O-]
→ i | -5.4%
CCOc1ccc(NC(=O)CCc2c(C)nc3cc(-c4ccc(Cl)cc4)nn3c2C)cc1
→ -3.0%[7.34 µM] | -8.8%[7.34 µM]
N#Cc1c(Sc2ncc(C(F)(F)F)cc2Cl)nsc1C/C=N\OCc1ccccc1Br
→ -12.8% | -18.6%
COc1ccc(Nc2nc3ccccc3nc2NS(=O)(=O)c2ccc(Cl)cc2)cc1OC
→ ? | ?
CCOc1ccc(C(=O)/C=C/c2ccc(OC)c(OC)c2)cc1
→ -21.9% | -20.3%
COc1ccccc1N1CCN(C(=O)c2cc3c(s2)CCCCC3)CC1
→ -19.9% | -8.3%
O=[N+]([O-])c1cccc(N=Nc2ccc(O)cc2O)c1
→ ? | ?
O=C(NCc1ccccc1)c1ccccc1
→ 38.9%[activator] | -0.7%
CC(SC1=NCCS1)C(=O)Nc1nnc(-c2ccc(Br)cc2)s1 (stereo not drawn)
→ -5.1% | -23.0%
Cn1ncc([N+](=O)[O-])c1C(=O)N/N=C/c1cccc([N+](=O)[O-])c1
→ -14.0% | -19.0%
COc1ccc(-c2nc3c(Cl)cc(C(F)(F)F)cn3c2Cc2cccc(F)c2)cc1OC
→ -6.0% | -11.6%
O=C(NCc1csc(-c2cccs2)n1)C1CC1
→ -12.0% | -23.0%
Cc1ccccc1NCc1ccc(O)c2ncccc12
→ ? | ?
O=C(CN1CCN(CC(=O)Nc2ccc(Cl)cc2)CC1)Nc1ccc(F)cc1
→ i | -12.2%
Cc1ccc(N(CC(=O)N/N=C/c2ccc(OCC(N)=O)cc2)S(C)(=O)=O)cc1Cl
→ -12.2% | -4.9%
Cc1ccccc1NS(=O)(=O)c1ccc2c(c1)n(C)c(=O)n2C
→ i | -0.9%
Oc1ccc2c3c1O[C@H]1c4[nH]c5c(c4C[C@@]4(O)[C@@H](C2)N(CC2CC2)CC[C@]314)C[C@@]1(O)[C@H]2Cc3ccc(O)c4c3[C@@]1(CCN2CC1CC1)[C@H]5O4
→ i | -7.9%
COC(=O)c1c(NC(C)=O)c2c3c(sc2n1Cc1cc(C)ccc1C)CCCC3
→ 8.6% | -5.9%
Cc1c(C#N)c(N=CN(C)C)c(C(=O)c2ccc(Br)cc2)n1-c1ccccc1
→ -22.5% | -10.1%
Cn1nc(C(C)(C)C)cc1C(=O)N1CCCCC1c1cc(C(=O)Nc2ccccc2)no1 (stereo not drawn)
→ -17.8% | -16.3%
O=C(Nc1ccc(F)cc1)OCCOc1ccc([N+](=O)[O-])cc1
→ -6.8% | -11.6%
CC[C@H](C)[C@H]1CNC(=O)C(=O)N1CC1CCN(CCc2ccc(Cl)c(Cl)c2)CC1
→ -4.2% | ?
O=C(COc1ccccc1)c1ccccc1
→ -4.0% | 4.1%
COc1ccc(Cl)cc1S(=O)(=O)Nc1ccc2c(c1)n(C)c(=O)n2C
→ -19.2% | ?
CC(C)CC(COCc1ccc(Cl)cc1)N1CCN(C(=O)c2ccc(Cl)cc2Cl)CCC1=O (stereo not drawn)
→ -7.6% | ?
CNc1ccc(C=C2C=Cc3ccccc32)cc1
→ i | -11.8%
Cc1ccccc1-c1noc(-c2cccs2)n1
→ ? | -14.5%
CCOC(=O)c1ccc(Nc2nc(N3CCOCC3)nc(N3CCOCC3)n2)cc1
→ i | -11.8%
COc1cccc(/C=N/n2cnc3c(cnn3-c3ccccc3)c2=O)c1
→ -18.0% | -18.8%
CCn1c(COc2ccc(C)cc2)nnc1SCC(=O)Nc1ccc2c(c1)OCCO2
→ -13.0%[1.46 µM] | -17.5%
O=C(NCc1cccnc1)Nc1cccc(C(F)(F)F)c1
→ -13.9% | -9.7%
COc1cc(C2C(S(=O)(=O)c3ccccc3)CON2C)ccc1OCc1ccc(F)cc1 (stereo not drawn)
→ 3.1% | 4.5%
CCCc1cc(CN(C)C(=O)CC2C(=O)NCCN2Cc2ccccc2C)[nH]n1 (stereo not drawn)
→ i | -8.0%
COc1ccc2ncc3c(-c4ccc(C)c(C)c4)nn(CC(=O)NC4CCCCC4)c3c2c1
→ -1.0% | -1.3%
O=C(CN1CCN(CC(=O)Nc2ccccc2C(F)(F)F)CC1)Nc1ccccc1F
→ nt | ?
COc1ccc(CC(=O)Nc2ccc(S(=O)(=O)Nc3cc(C)on3)cc2)cc1OC
→ nt | -22.9%
CC1(C)CC(CC(=O)Nc2ccccc2[N+](=O)[O-])C(=O)O1 (stereo not drawn)
→ i | -3.9%
O=C(CSCc1cc(=O)n2nc(C3CC3)sc2n1)Nc1ccccc1Cl
→ -17.1% | -1.7%
CN1CN=C(NS(=O)(=O)c2ccc([N+](=O)[O-])cc2)NC1
→ i | -15.9%
COc1cccc(NC(=O)COC(=O)Cc2ccc(Br)cc2)c1
→ i | -2.3%
COc1ccc(NC(=O)N2CCCC2C(=O)NCc2ccccc2Cl)cc1 (stereo not drawn)
→ i | -5.4%
CC(CCc1ccccc1)NC(=O)Cc1cccs1 (stereo not drawn)
→ -13.5% | -5.5%
COc1ccc2c(c1)C(=O)CC(c1ccc3c(c1)OCCO3)O2 (stereo not drawn)
→ ? | -14.0%
CCOC(=O)N1CCN(C(=O)C2CCN(S(=O)(=O)CC)CC2)CC1
→ -6.1% | -21.4%
COc1ccc(OC)c(CCNC(=O)C(C)n2nc(C)c3c(C)n(-c4ccccc4)nc3c2=O)c1 (stereo not drawn)
→ i | -12.3%
COc1cc(C(=O)N2CCN(C(=O)c3ccccc3)CC2)cc(OC)c1OC
→ -11.0% | -5.7%
Nc1ccccc1-c1nc2ccccc2c(=O)o1
→ -10.3% | -19.8%
CCC(NC(=O)CNC(=O)CNC(=O)c1ccc(Cl)cc1Cl)c1ccc(C)cc1 (stereo not drawn)
→ -25.0% | -19.1%
COc1cccc(NC(=O)CN(C)C(=O)c2cc(-c3ccccc3)nc3ccc(C)cc23)c1
→ -10.6% | -4.1%
Cc1ccnc(NC(=O)c2cccc(S(=O)(=O)N3CCN(c4ccccc4)CC3)c2)c1
→ ? | -8.5%
Cc1cccc(-c2noc(-c3ccc(NCc4cccnc4)c([N+](=O)[O-])c3)n2)c1
→ -11.0% | -8.2%
O=C(CCc1ccc(S(=O)(=O)NC2CCCCC2)cc1)N(Cc1ccccc1)Cc1ccccc1
→ ? | ?
CN(C)CCOc1ccc(C(C)(C)c2ccccc2)cc1
→ i | -3.7%
c1cncc(-c2nnc3sc(C4CCCCC4)nn23)c1
→ -12.1% | ?

(cont.)
Screens in order – Vaccinia mCherry | Vaccinia Venus
CC(C)Nc1ccc(-c2nc(-c3ccncc3)no2)cc1[N+](=O)[O-]
→ -6.9% | -1.5%
CCN(c1ccccc1)S(=O)(=O)c1ccc(OC)c(NC(=O)CN2C(=O)NC(C)(C)C2=O)c1
→ -7.9% | 0.6%
CC(C)NC(=O)Nc1ccc2c(c1)C(=O)N([C@H](C)CO)C[C@@H](C)[C@@H](CN(C)C(=O)NC1CCCCC1)O2
→ -18.1% | -2.1%
CCOc1ccc2c(C)cc(=O)oc2c1OCC
→ nt | -9.8%
O=C(Cn1cc(C(=O)c2ccccc2)c2ccccc21)Nc1ccc(Br)cc1
→ -8.2% | -25.4%
COc1ccc(CNC(=O)c2ccc(Cn3c(=O)c4cccn4c4cccnc43)cc2)c(OC)c1
→ -9.0% | -10.3%
COc1cc(C(=O)Nc2cc(-c3nc4cc(C)ccc4o3)ccc2C)cc(OC)c1OC
→ nt | 2.5%
CCCCCCCNC(=O)C1(CC2CC(c3ccccc3)=NO2)CCN(C(=O)OC(C)(C)C)CC1 (stereo not drawn)
→ i | -27.8%
C[C@]12c3[nH]c4ccccc4c3CCN1C(=O)C(CC(=O)NCCCn1ccnc1)C[C@@H]2C(=O)N1CCCCC1 (stereo partly drawn)
→ i | -15.7%
CCn1nc(C)c(CN2CCC(n3nccc3NC(=O)Cc3ccccc3)CC2)c1C
→ -11.4% | -7.7%
COCCn1nnnc1C(c1ccccn1)N1CCN(c2cccc(C)c2C)CC1 (stereo not drawn)
→ nt | -12.1%
CCOC(=O)c1c(N)sc(-c2ccccc2)c1C
→ -19.5% | -13.8%
COc1cccc(CNC(=O)[C@@H]2CCCN2C(=O)OC(C)(C)C)c1
→ -13.4% | -3.4%
Cc1cc(C(=O)CS(=O)c2ccc(F)cc2)cc(C)c1OC(=O)N(C)C (stereo not drawn)
→ -15.0% | 8.9%
